# Screening data (PubChem)
# AID504770 – E. coli YBA685 growth inhibition, screen for V. cholerae RctB inhibitors. E. coli YBA685 rctB-dependent plasmid, OD600 growth, 3 h; hits give low values. z-score (test concentration not listed). hit rate 0.27% among 130,000;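 active = z-score under -2 on both plates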;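 note: wells of about 30 µL received 100 nL stock; score is relative to mean and SD of the test wells; the first replicate is given; strong numbers were not always called active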
# CapD inh – inhibitors of Bacillus anthracis CapD enzyme; hit rate 0.23% among 140,000; purified CapD enzyme, fluorescence intensity read-out; hits give low values; some hits fall short of the stated cut; AID 492967; z-score (no concentration beside the values);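 active = z-score under -4 in either of two replicates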;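 note: stock transfer was 100 nL into about 40 µL; score is relative to mean and spread of the plate; one replicate is shown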
# Active calls of the source: *; . = not tested or not shown; & = joins results of further samples. Random draw from the library; 0.37% or so of the library scored in one or more.
SMILES | CapD inh | AID504770
CSCCC(N=C1NS(=O)(=O)c2ccccc21)C(=O)N1CCN(C(=O)c2ccco2)CC1 (configuration not stated) | . | 0.4
COc1ccc(CCNc2nc(SCC#N)nc3ccccc23)cc1OC | -0.245 | .
CC(C)CC(=O)NC(C(=O)N[C@H](C(=O)NC(CC(C)C)[C@@H](O)CC(=O)N[C@@H](C)C(=O)NC(CC(C)C)[C@@H](O)CC(=O)O)C(C)C)C(C)C (some centres not stated) | 3.96 | .
COc1ccccc1N1C(=O)C2CSC(c3ccc(C)cc3)N2C1=O (configuration not stated) | -0.29 | -1.55
O=c1[nH]nc(SCc2cn3ccccc3n2)c(=O)[nH]1 | . | -2.5
CC(=O)NC1=NC(=O)/C(=C/c2cccc(Oc3ccccc3)c2)S1 | 0.45 | -0.1
Cc1nc(N2CCN(c3ccccn3)CC2)c2c(C)c(C(=O)N3CC(C)CC(C)C3)sc2n1 (configuration not stated) | -0.32 | .
COCCN=c1scc(-c2cccs2)n1/N=C/c1c(C)nn(-c2ccccc2)c1Cl | . | 0
CSc1ccccc1NC(=O)Cn1c(SC)nc2ccccc21 | -1.13 | -0.65
CC1(C)CC(=O)C2=C(C1)Nc1ccc3ccccc3c1C2c1ccccc1OCc1ccccc1 (configuration not stated) | 57.3 | .
Cn1cnc(S(=O)(=O)Nc2ccccc2Oc2ccccc2)c1 | 2.02 | -0.3
CCN(CC)c1cccc(Oc2ncnc3sccc23)c1 | . | -0.55
CCCn1c2ccccc2c2cc(OC)ccc21 | 39.8 | -0.1
O=C(O)CC1(CC(=O)NCc2ccco2)CCCCC1 | -0.58 | 0.6
N#CCc1ccc(NC(=O)c2nccnc2C(=O)O)cc1 | -1.03 | -0.6
NC(=O)C[n+]1cccc(C(N)=O)c1 | 0.345 | 0.65
COC(=O)C(CC(=O)c1ccc(Br)cc1)n1cncn1 (configuration not stated) | -0.22 | -0.25
Clc1ccc(CSc2nnc(Cc3cccs3)n2C2CC2)cc1Cl | . | -1.2
O=C(CN1C(=O)C2(OCCO2)c2ccccc21)c1ccc(Br)cc1 | -2.87 | -0.2
CNCc1ccc(-c2ccc(F)c(Cl)c2)o1 | . | -0.1
CCCC(=O)C1=C(N(C)c2ccccc2)CC(C)(C)CC1=O | . | -0.15
Cc1cc(C)cc(-n2ncc3c(=O)[nH]cnc32)c1 | . | -0.05
Cc1ccc2[nH]c(CNC(=O)C3CC3)cc2c1 | . | -0.1
O=C(CSCc1ccccc1)NCc1ccccc1 | . | -1.4
O=C1CCCN=C(N(C(=O)c2ccco2)c2cccc(C(F)(F)F)c2)S1 | 0.21 | -1.05
Clc1cccc(Cl)c1Cn1c2ccccc2c2nc3ccccc3nc21 | -0.415 | .
O=C(/C=C/c1ccc(Br)o1)OCCCn1c(=O)[nH]c2ccccc21 | . | 0.7
S=C1NC2(CCCC2)Nc2ccccc21 | 5.62 | -0.95
Cc1ccc(N/C(N)=N/c2nc3c(c(=O)[nH]2)CCCC3)c(C)c1 | 1.12 | -0.35
COc1ccc(NCC(O)COc2ccc(OC)cc2)cc1 (configuration not stated) | . | -0.1
CCCC1(CCC)C(=O)NC(=Nc2ccccc2)NC1=O | . | 2.05
O=C1N(CNc2ccccc2)CCN1CNc1ccccc1 | 5.12 | -0.9
Brc1ccc(-n2nnnc2-c2cn[nH]c2-c2ccccc2)cc1 | 0.97 | 1.7
Cc1cccc(NC(=S)NCCCN2CCOCC2)c1 | -0.345 | -1.3&-0.05
CCN(CCO)C(=O)CCN1C(=O)/C(=C/c2ccc(OC)c(OC)c2)SC1=S | -0.15 | 1.55
COC(=O)c1ccc(C2NC(=O)N(C)C(C)=C2C(=O)OCCOc2ccccc2)cc1 (configuration not stated) | -0.24 | .
O=c1c2c(nc3n1CC(c1ccccc1)S3)-c1ccccc1CC21CCCCC1 (configuration not stated) | -0.18 | .
O=C1c2cccc3cc([N+](=O)[O-])cc(c23)C(=O)N1CCO | -0.785 | .
O=C(CC(=O)NN=C1CCCC1)NCc1ccccc1 | . | -0.7
CN(Cc1ccccc1)C(=O)CCC(=O)N1CC2CCCN2c2ccccc21 (configuration not stated) | -1.78 | -0.25
CCn1c(=O)c(CCC(=O)NCCN2CCOCC2)c(C)c2c(C)nn(-c3ccccc3)c21 | 0.54 | 0.75
O=C(Nc1ccc(F)cc1)c1sccc1SCc1ccc([N+](=O)[O-])cc1 | -0.69 | .
O=C1CC(c2cccs2)CC(O)=C1C=Nc1cccc(C(F)(F)F)c1 (configuration not stated) | -0.445 | 0.6
N#CCSc1nnc(CSc2nc3ccccc3s2)n1Cc1ccccc1 | . | -0.3
O=C(CN1C2=NCCCN2c2ccccc21)c1ccc(-c2ccccc2)cc1 | -0.44 | .
CCC(C)(C)n1c(=O)[nH]c2c(c1=O)CCC2 | -0.34 | 2.2
O=C1CNC(=O)N1CC(O)Cn1c2ccccc2c2ccccc21 (configuration not stated) | 16.4 | -0.45
CN(C)CCC(O)c1cc(Cl)sc1Cl (configuration not stated) | -0.82 | 1.25
CC(Sc1ccccn1)C(=O)Nc1ccc(S(N)(=O)=O)cc1 (configuration not stated) | 4.55 | -0.6
CC(C)N(C(=O)C[n+]1ccc(/C=N/O)cc1)C(C)C | 0.07 | 0.15
COc1ccc(-c2nn(-c3ccccc3)cc2C#N)cc1OC | 1.89 | 1.5
C=C[C@]12CN(C)C3C4COC(CC41)[C@]1(C(=O)Nc4ccccc41)[C@@H]32 (some centres not stated) | 0.355 | .
O=C1c2ccccc2C(=O)N1CC1c2ccccc2CCN1S(=O)(=O)c1ccc(Cl)s1 (configuration not stated) | -1.19 | .
O=C(O)CCSc1cccc(C(F)(F)F)c1 | -0.905 | -1.15
Cc1ccc(N/C(N)=N/c2nc(CSc3nnc(C)s3)cc(=O)[nH]2)c(C)c1 | -0.155 | -0.25
CCn1c2ccccc2c2nnc(SCN3C(=O)c4ccccc4C3=O)nc21 | 0.38 | 0.15
COc1ccc(-c2nnc(SCC(=O)N=Nc3c(O)[nH]c4ccccc34)n2-c2ccccc2)cc1OC | 0.19 | 0.05
N#Cc1cc2c(cc1N)OCO2 | 16.6 | -1
CSc1ccnc2c1c(=O)n(C)c(=O)n2C | . | 0.65
COc1ccc(NC2=NCCS2)cc1 | -0.85 | -0.95

# (next part)
SMILES | CapD inh | AID504770
CC1CCCC(C)N1C(=O)CSc1nnc(C(F)(F)F)n1N (configuration not stated) | . | 1
Cc1ccc2nc(COCC(=O)O)[nH]c2c1 | . | -1
COc1ccc(N2C(=O)NC(=O)/C(=C/c3ccc(OC(=O)c4cccs4)c(OC)c3)C2=O)cc1 | -0.14 | .
O=C(Nc1ccccc1C(=O)N/N=C/c1cc2ccccc2o1)c1cccs1 | 11 | .
CC1(C)CC(NCc2ccccc2O)CC(C)(C)N1 | -0.085 | .
COc1ccc(Nc2ccc3c4c(ncnc24)-c2ccccc2C3=O)cc1 | -0.29 | .
CCC1CCCCN1C(=O)COC(=O)c1cc(C)nc2ccccc12 (configuration not stated) | 1.45 | 1.55
O=C(C1CC(=O)N(c2ccc3c(c2)OCCO3)C1)N1CCCSC1=Nc1ccccc1 (configuration not stated) | . | 0.4
CCOC(=O)[C@H](CCCN=C(N)N)NC(=O)c1ccccc1 | -0.035 | .
Brc1ccc(-n2cc(-c3ccccc3)c3c(N4CCC5(CC4)OCCO5)ncnc32)cc1 | -0.47 | .
Cc1ccc2cc(-c3noc(C4CCCCC4)n3)c(=O)[nH]c2c1 | 0.78 | 1.9
COc1cc(/C=C2/N=C(c3ccccc3Br)OC2=O)cc(OC)c1OC | 0.305 | .
Cc1ccc(-c2nnc3s/c(=C\c4ccc([N+](=O)[O-])cc4)c(=O)n23)cc1 | -0.28 | .
CCCc1cc(=O)oc2cc(OCC(=O)OCc3ccccc3)ccc12 | -1.29 | 1.9
O=C1c2cccc3cccc(c23)N1CN1CCCCC1 | . | -1.05
O=C1CS/C(=C/C(=O)N2CCCC2)N1 | -0.915 | -0.65
Cc1cccc(C)c1NC(=O)C1(N(C)C(=O)c2ccc3ccccc3n2)CCCC1 | 0.53 | -0.2
Cc1cccc(N2CCN(S(=O)(=O)c3ccc(C#N)cc3)CC2)c1 | -0.695 | .
CC1CN(C2=NCCN2)CC(C)O1 (configuration not stated) | -0.895 | .
O=C(C/C=N\OCc1c(Cl)cccc1Cl)Nc1ccc(Cl)cc1 | -0.415 | .
COCCn1nnnc1C(c1ccc(OC)c(OC)c1)N1CCc2ccccc21 (configuration not stated) | . | 0.5
Cc1nnc(SCC(=O)c2cc(C)n(CC3COc4ccccc4O3)c2C)n(N)c1=O (configuration not stated) | . | 0
c1ccc(OCCSc2nnc(-c3c[nH]c4ccccc34)o2)cc1 | . | -0.3
CCOc1ccc(N=CC=Nc2ccc(OCC)cc2)cc1 | -1.51 | 0.35
Cc1ccc(S(=O)(=O)N2CCn3c(nc4ccccc43)C2)cc1 | 0.245 | -0.3
Cc1ccsc1C(=O)OCC(=O)NC(c1ccccc1)c1ccccc1 | 0.655 | 0.7
COc1ccc(C2(CNC(=O)/C=C(/C)c3ccccc3)CCCC2)cc1OC | -0.39 | .
CCOC(=O)c1cnc2nc(C(F)(F)F)nn2c1N | -0.595 | -0.35
CCCN1C(=O)c2ccc(-c3nc4ccccc4c(=O)o3)cc2C1=O | 1.8 | 0.4
CC(C)(C)C(=O)Nc1nnc(SCc2ccccc2)s1 | -0.695 | 2.3
CCCCN(C(=O)c1ccc(F)cc1)C1=CC2CCC(C1)N2C (configuration not stated) | -0.93 | .
O=C(Nc1ccc(/C=C/c2nc3ccccc3o2)cc1)c1c(F)cccc1F | 68.4 | .
Cc1cc(OCC(=O)Nc2ccccc2N2CCN(C)CC2)cc(C)c1Cl | -0.195 | -0.3
COCCCn1c(C)cc(C(=O)CSc2ncnc3ccccc23)c1C | . | 3.05
S=c1[nH]c2cc3c(cc2[nH]1)OCCO3 | -0.46 | .
CCn1c(SCC(=O)NCc2ccc(Cl)cc2)nnc1-c1ccccc1OC | . | -0.1
CCCC(=O)N1c2cc(C)c(C)cc2-c2c(ssc2=S)C1(C)C | -0.72 | .
CCCCCN=C1NN=C(c2ccccc2)C(C(=O)Nc2cccnc2)S1 (configuration not stated) | . | 0.25
COc1ccc(OCC(=O)Nc2c(Cl)cccc2Cl)cc1 | -0.68 | -0.75
Cc1[nH]c(=S)[nH]c(=O)c1CCO | -0.16 | -0.8
CC(=O)NC(CO)C(=O)c1ccc([N+](=O)[O-])cc1 (configuration not stated) | 0.255 | .
CSc1ccc(-c2ccc3c(c2)OCCO3)nn1 | . | 0.35
CCC(=O)N(c1n[nH]c(=S)s1)C1CC1 | . | -0.65
COc1cc(C2NC(=O)NC(C)=C2C(=O)OCCOc2ccccc2)cc(Br)c1O (configuration not stated) | -0.685 | .
O=C(C[n+]1cccc(C(=O)Nc2ccccc2)c1)c1ccc(N2C(=O)c3ccccc3C2=O)cc1 | 2.54 | -2.8
CCCN(C(=O)C(c1ccccc1)c1ccccc1)C1CCN(Cc2c(OC)cccc2OC)CC1 | -0.815 | .
CC1=CC(C)(C)N(C(=O)CSc2nnc3sc4ccccc4n23)c2ccccc21 | . | -2.15
Cc1ccc2c(c1)N(CC(=O)NC1CCCC1)C(=O)CO2 | -0.85 | 0.25
O=c1c2ccccc2[nH]c(=S)n1Cc1ccccc1 | . | 1.3
COc1c(C#N)sc2ccccc12 | -0.385 | -0.15
CN1C(=O)N(C)C2(c3ccccc3)N(C)C(=O)N(C)C12c1ccccc1 (configuration not stated) | -0.465 | .
Cc1ccc(-c2n[nH]c3c2C(c2ccccc2F)N(c2ccc(F)cc2)C3=O)cc1 (configuration not stated) | -0.525 | .
O=C(CC1(O)C(=O)Nc2ccc(Br)cc21)c1ccc2c(c1)OCO2 (configuration not stated) | -0.055 | .
O=c1nc(Nc2nc(=O)c3ccccc3s2)[nH]c(=O)[nH]1 | 0.075 | 1.1
C(=N\n1c(-c2ccco2)csc1=NCc1ccccc1)/c1cccnc1 | . | 0.15
N#CC(CN1CCOCC1)CN1CCOCC1 | -0.14 | -0.65
O=c1c([N+](=O)[O-])c[nH]n(-c2ccccc2)c1=O | -1.11 | .
Cc1cc(C(=O)Cn2cnnc2C#N)c(C)n1-c1ccc(Br)cc1 | . | -1.5
C=C(C)CSc1nnc2n(-c3ccccc3)c(=O)c3c4c(sc3n12)CC(C(C)(C)C)CC4 (configuration not stated) | -0.005 | .
COc1ccc(-c2csc3nc(-c4ccccc4F)oc(=O)c23)cc1 | 0.49 | .
CCCn1c(CCC(=O)NC2=NCCS2)nc2cc(S(=O)(=O)N(CC)CC)ccc21 | . | 1.25
